Source: PubChem BioAssay (National Center for Advancing Translational Sciences (NCATS))
VDR inh: Inhibitors of the vitamin D receptor (VDR): qHTS | AID 504847, 2011 | 400,000 compounds, 0.93% hits | Potency, µM, for inactives: max response, negative = inhibition, actives largely listed as inhibitors | Vitamin D3 receptor (Homo sapiens), P11473 | VDR-SRC2-3 peptide fluorescence polarization, 2 h; active means well fitted inhibition curve with a large enough effect; inconclusive means small, poorly fitted or top-dose-only effect, or another doubt; inactive means no such curve, though single readings can be large or run the other way; further: series mostly up to about 120 µM
Target sequence (P11473 whole entry, looked up): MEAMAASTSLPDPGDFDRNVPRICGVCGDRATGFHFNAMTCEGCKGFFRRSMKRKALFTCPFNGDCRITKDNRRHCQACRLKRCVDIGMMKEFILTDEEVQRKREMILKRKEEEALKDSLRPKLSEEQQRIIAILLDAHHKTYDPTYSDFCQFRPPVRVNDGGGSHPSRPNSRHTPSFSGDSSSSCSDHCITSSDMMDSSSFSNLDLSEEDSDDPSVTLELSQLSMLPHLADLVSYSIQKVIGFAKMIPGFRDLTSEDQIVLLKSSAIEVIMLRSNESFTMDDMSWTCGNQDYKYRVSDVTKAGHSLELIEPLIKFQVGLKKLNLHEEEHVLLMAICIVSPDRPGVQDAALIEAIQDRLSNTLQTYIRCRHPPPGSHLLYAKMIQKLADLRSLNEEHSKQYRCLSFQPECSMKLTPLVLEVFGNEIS
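Measured by FP: displacement of SRC2-3 coactivator peptide from VDR by library compounds, following a two-hour ambient incubation.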
Starred values were filed as active, the others as inactive; ? = inconclusive; & = joins results of further samples. On the % scale 0 is the no-effect control and ±100 the full control effect; potency means the concentration at half of the fitted maximal effect. The list is partial (hit frequency here may not be typical).

VDR inh,SMILES
22.1%,COc1ccccc1CC(=O)Nc1cc(S(=O)(=O)N2CCOCC2)ccc1N1CCOCC1
-11.1%,CCC(C)Sc1cccc(-c2nc3ccccn3c2NCc2ccccc2)c1 (stereo not drawn)
5.2%,COc1ccc(/C=N/NC(=O)c2ccn[nH]2)cc1Cn1cc([N+](=O)[O-])cn1
-18.6%,CCCCNC(=O)C1CC(=O)N(CCc2ccccc2)C1 (stereo not drawn)
0.8%,CCCS(=O)(=O)NCCc1cc2ccc(OC)cc2[nH]c1=O
0.1%,C[n+]1ccc(C(=O)Nc2ccccc2Cl)cc1
11.8%,CCCCn1nc(C(=O)Nc2ccc3c(c2)OCCO3)c2ccccc2c1=O
-12.3%&8.1%,CCOC(=O)N1CCN(C(=O)c2ccc3c(c2)N(Cc2cccc(Cl)c2)C(=O)c2ccccc2S3=O)CC1 (stereo not drawn)
-21.1%,O=C(Nc1ccnn1C1CCN(CC(O)CO)CC1)C1CCCC1 (stereo not drawn)
5.4%,CC1=C(C(=O)Nc2ccc(C(=O)N3CCN(c4cccc(Cl)c4)CC3)cc2)SCCO1

Continuation.
VDR inh,SMILES
-10.6%,Cc1oc2cc3oc(=O)c(CCC(=O)NCCC(=O)O)c(C)c3cc2c1C
3.5%,Nc1nnc(SCC(=O)NN2C(=O)NC3(CCCCC3)C2=O)s1
-0.6%,COc1ccc(C(C)=O)c(O)c1
16.1%,Cc1ccc(C(=O)NCCCN2CCOCC2)c(Cl)c1
9.9%,O=C(COC(=O)Cc1ccc(Br)cc1)Nc1ccc(N2CCOCC2)cc1
10.3%,COc1ccc(N(CC(=O)N2CCCCCC2)S(=O)(=O)c2ccccc2[N+](=O)[O-])c(OC)c1
-11.3%,FC(F)(F)c1cccc(-c2nn[nH]n2)c1
16.2%,COc1cc2c(cc1OC)C(CC(=O)O)N(C(=O)Nc1cc(OC)c(OC)c(OC)c1)CC2 (stereo not drawn)
8.8%,Cc1ccc(Nc2ncnc3onc(C)c23)cc1Cl
-0.4%,COCCN1C(=O)/C(=C/c2ccc(N3CCCC3)cc2C)SC1=S

(listing goes on)
VDR inh,SMILES
3.8%,COc1ccc(NC(=O)c2ccccc2NC(=O)c2ccco2)cc1
-18.2%,COc1ccc2[nH]cc(CCNc3ccnc(-c4ccc5c(c4)OCO5)n3)c2c1
?,CCOc1ccccc1NC(=O)c1c(NC(=O)c2ccccc2C)sc2c1CCC(C)C2 (stereo not drawn)
8.6%,CCSCc1nnc(SCC(=O)Nc2cc(F)ccc2C)n1C
-8.4%,CCOC(=O)/C(C(N)=NCCCO)=C(/O)c1ccccc1
11.9%,Cc1ccc(C(c2nnnn2C2CCCC2)N2CCc3ccccc32)cc1 (stereo not drawn)
3.9%,Cc1c(Cl)cccc1NC(=O)NCCOCCn1c(=O)oc2ccccc21
5.5%,Cc1ccc(-n2c(C)cc(C(=O)CN3CCOCC3)c2C)cc1C
15.3%,COC(=O)c1sc(-c2ccccc2)cc1NC(=O)c1cccc(Cl)c1
-0.1%,Cc1[nH]nc2c1C1(CCN(C(=O)c3ccccc3)CC1)C(C#N)=C(N)O2

Later entries
VDR inh,SMILES
-19.2%,COc1ccccc1-n1c(C)cc(/C=C2/C(=N)N3C(=NC2=O)SN=C3S(C)(=O)=O)c1C
-6.1%,COc1c(O)cc2c(=O)oc3c(OC)c(O)cc4c(=O)oc1c2c34
-3.6%,COc1ccc(N2C(=O)C(CC(=O)Nc3ccccc3)N(Cc3ccc(OC)c(OC)c3)C2=O)cc1 (stereo not drawn)
-6.9%,CCOc1ccc(Cc2nc(C)c(CC(=O)N3CCCCC3)c(=O)[nH]2)cc1
0.5%,CCOC(=O)c1sc2ccccc2c1S(=O)(=O)N1CCN(c2cccc(OC)c2)CC1
1.7%,Cc1ccc(C)c(NC(=O)Cc2nc(CCl)cs2)c1
5.7%,COc1ccc(OC)c(NC(=O)Nc2ccc3[nH]ccc3c2)c1
3.3%,O=C(NC1(C(F)(F)F)C(=O)Nc2c1c(=O)[nH]c(=O)n2-c1ccccc1)c1ccccc1Cl (stereo not drawn)
-13.7%,CCOc1cc(/C=N/Nc2cc(C)nc3ccc(C)cc23)ccc1O
2.0%,CCN(CC)CCNC(=O)CN1C(=O)c2cccnc2Oc2ccc(C)cc21

(continued)
VDR inh,SMILES
?,Cc1ccc(S(=O)(=O)NNc2nnc(C)c(=O)[nH]2)cc1
17.9%,Cc1cccc(OCC(=O)N2CCN(S(C)(=O)=O)CC2)c1
-16.1%,CCCCn1c(SCC(=O)Nc2ccc3c(c2)OCO3)nc2c1c(=O)n(C)c(=O)n2C
-1.5%,CN1C(=O)C(O)(C2COC(C)(C)CC2=O)c2ccccc21 (stereo not drawn)
4.3%,COc1ccc(CC(=O)N(C)Cc2ccc(OC(F)F)cc2)cc1S(=O)(=O)N1CCOCC1
-12.8%,CCC1CCCCN1C(=O)COc1c(Br)cc(Br)c2cccnc12 (stereo not drawn)
-3.7%,NC(=O)COc1ccc2cc(-c3ccccc3)c(=O)oc2c1
-12.8%,O=C(/C=C\Nc1ccc(S(=O)(=O)Nc2ncccn2)cc1)c1ccccc1
8.1%,Cc1cc(S(=O)(=O)Nc2ccc3[nH]c(=O)sc3c2)ccc1F
-2.5%,CCn1c(C)nc2cc(C(=O)NNC(=O)Nc3cccc(Cl)c3)ccc21

Continuation:
VDR inh,SMILES
4.5%,O=C(COC(=O)c1cccs1)NC1CCCC1
-9.6%,CCCCn1cc(SCC(=O)O)c2ccccc21
-12.1%,COc1nc(Nc2ccc([N+](=O)[O-])cc2)nc(NC(C)C)n1
-5.0%,Cc1ccc2nc(SCC(=O)c3cc(C)n(C)c3C)[nH]c2c1
17.1%,O=C(NCC(c1ccco1)N1CCN(c2ccc(F)cc2)CC1)c1ccc2c(c1)OCO2 (stereo not drawn)
-1.7%,CC(=O)c1c(C)[nH]c(C(=O)OCC(=O)N2CC(=O)Nc3ccccc32)c1C
-25.5%,CNS(=O)(=O)c1cn(CC(=O)NCc2ccc(F)cc2)cc1S(=O)(=O)NC
10.3%,CC(c1ccccc1)n1c(CCCO)nc2ccccc21 (stereo not drawn)
-10.6%,N/C(Cc1ccc(Cl)cc1Cl)=N\OC(=O)c1ccccc1F
-2.7%,CCCN(C(=O)COC(=O)CCOc1ccc(C)cc1)c1c(N)n(Cc2ccccc2)c(=O)[nH]c1=O

Looked up above:
CNS(=O)(=O)c1cn(CC(=O)NCc2ccc(F)cc2)cc1S(=O)(=O)NC | VDR inh = -25.5%
O=C(NCC(c1ccco1)N1CCN(c2ccc(F)cc2)CC1)c1ccc2c(c1)OCO2 (stereo not drawn) | VDR inh = 17.1%

Continued.
VDR inh,SMILES
79.4µM*,CCOC(=O)C1=C(C)Nc2nc(=S)[nH]n2C1c1ccc(Cl)cc1 (stereo not drawn)
0.7%,CC1OC(OC2C(CO)OC(OC3C(CO)OC(O)C(O)C3O)C(O)C2O)C(O)C(O)C1N[C@@H]1C=C(CO)[C@@H](O)C(O)[C@H]1O (stereo partly drawn)
12.9%,COc1cc(/C=N/NC(=O)c2ccoc2C)cc(OC)c1OC
?,Cc1cc(C)cc(-n2cccc2/C=C2/C(=N)N3C(=NC2=O)SN=C3S(C)(=O)=O)c1
-4.7%,O=C(c1ccc(S(=O)(=O)N2CCOCC2)cc1)N(c1cccc(Cl)c1)C1C=CS(=O)(=O)C1 (stereo not drawn)
-26.6%,CCOC(=O)NC(C(Cl)(Cl)Cl)S(=O)(=O)c1ccccc1 (stereo not drawn)
10.0%,COCCNC(=O)CSc1nc(-c2ccccc2)cs1
-15.0%,CCOC(=O)c1cc(C)sc1NC(=O)c1ccc(Cl)s1
3.6%,COC(=O)c1ccc(NS(=O)(=O)c2c(C)nc3sccn3c2=O)cc1
12.7%,Cn1c(NCc2ccco2)nc2c1c(=O)n(Cc1ccc(Br)cc1)c(=O)n2C

Given as labelled records: part of the list above
> COC(=O)c1ccc(NS(=O)(=O)c2c(C)nc3sccn3c2=O)cc1
  VDR inh: 3.6%

> Cn1c(NCc2ccco2)nc2c1c(=O)n(Cc1ccc(Br)cc1)c(=O)n2C
  VDR inh: 12.7%

3 of the compounds above, as labelled records:
CCOC(=O)c1cc(C)sc1NC(=O)c1ccc(Cl)s1
  VDR inh: -15.0%

COC(=O)c1ccc(NS(=O)(=O)c2c(C)nc3sccn3c2=O)cc1
  VDR inh: 3.6%

Cn1c(NCc2ccco2)nc2c1c(=O)n(Cc1ccc(Br)cc1)c(=O)n2C
  VDR inh: 12.7%

The list goes on:
VDR inh,SMILES
-8.2%,CCC(CC)C(=O)Nc1cccc(-c2cn3cccnc3n2)c1
?,C=CCn1c(NS(=O)(=O)c2ccccc2)c(S(=O)(=O)c2ccc(C)cc2)c2nc3ccccc3nc21
-5.4%,CC(C)(Oc1ccc(Cl)cc1)C(=O)Nc1nnc2n1CCS2
-1.3%,Cc1cc(C)n(-c2nnc3n2N=C(c2c[nH]c4ccccc24)CS3)n1
-8.4%,Cc1ccc(C(CC(=O)O)C2CCOC(C)(C)C2)cc1 (stereo not drawn)
-5.7%,Cc1ccc(CNc2nc(-c3cccnc3)nc3ccccc23)cc1
11.7%,CC(C)c1nnc(N2C(=O)c3oc4ccccc4c(=O)c3C2c2ccco2)s1 (stereo not drawn)
-10.6%,Cc1cn(CC(=O)NCCc2c[nH]c3ccccc23)c(=O)[nH]c1=O
7.3%,CC(C)Oc1ccc(S(=O)(=O)N2CCOCC2)cc1NC(=O)C1CSC2(C)CCC(=O)N12 (stereo not drawn)
89.1µM*,Cc1c(C(=O)Nc2nc(-c3ccccn3)cs2)oc2ccccc12

Further structures.
VDR inh,SMILES
-1.2%,NC(=O)C1CCN(C(=O)COc2cccc3ccccc23)CC1
-8.4%,COc1ccc(S(=O)(=O)N(C)c2ccc(C(=O)NCc3ccccn3)cc2)cc1
-10.5%,COC(=O)c1c(C)[nH]c(C)c1-c1ccc([N+](=O)[O-])cc1
-0.2%,CCn1nnnc1SCC(=O)N1CCCCC1
4.4%,COc1ccc(-n2c(Cn3nnc4ccccc43)nnc2SCC(=O)O)cc1
-16.6%,CC(C)(C)C1=NN=C2c3ccccc3C(=O)C21 (stereo not drawn)
-8.6%,CCCn1nnnc1NC(=O)c1cc(Cl)ccc1Cl
1.2%,CCOc1ccc(OCCC(=O)Nc2ccc3c(c2)OCO3)cc1
23.9%,CN(C)S(=O)(=O)c1ccc2c(c1)nc(CCC(=O)NCc1ccc(Cl)cc1)n2C
-22.0%,Cn1nc(C(F)(F)F)c(-c2ccc(Br)cc2)c1NC(=O)c1nccnc1C(=O)O

Of the compounds above, six contain a COOH group:
VDR inh,SMILES
-10.6%,Cc1oc2cc3oc(=O)c(CCC(=O)NCCC(=O)O)c(C)c3cc2c1C
16.2%,COc1cc2c(cc1OC)C(CC(=O)O)N(C(=O)Nc1cc(OC)c(OC)c(OC)c1)CC2 (stereo not drawn)
-9.6%,CCCCn1cc(SCC(=O)O)c2ccccc21
-8.4%,Cc1ccc(C(CC(=O)O)C2CCOC(C)(C)C2)cc1 (stereo not drawn)
4.4%,COc1ccc(-n2c(Cn3nnc4ccccc43)nnc2SCC(=O)O)cc1
-22.0%,Cn1nc(C(F)(F)F)c(-c2ccc(Br)cc2)c1NC(=O)c1nccnc1C(=O)O

The results go on.
VDR inh,SMILES
11.5%,CS(=O)(=O)N1CCC(C(=O)Nc2cccc(Cl)c2Cl)CC1
15.5%,O=C(CN1C(=O)C2C3C=CC(C4CC34)C2C1=O)Nc1cnc2ccccc2c1 (stereo not drawn)
-14.0%,O=C(O)/C=C\C(=O)Nc1ccc(F)c(F)c1F
-5.0%,O=C1[C@H](Cc2ccccc2)NCCCC[C@@H](c2ccco2)N1Cc1ccccc1
7.1%,Cc1c(Cl)cccc1NC(=O)c1cc(-c2ccco2)on1
-13.8%,Cn1c(=O)c(-c2cc(F)cc(F)c2)nc2cnc(Nc3ccccc3)nc21
18.6%,Cn1c(CO)cnc1SCc1c(Cl)cccc1Cl
-8.1%,COc1ccc(Nc2nnc(SCC(=O)/C=C3/N(C)c4ccccc4C3(C)C)s2)cc1
15.7%,CC1(C(=O)NCc2ccccc2)Oc2ccccc2NC1=O (stereo not drawn)
-18.9%,Cn1c2ccccc2c(=O)c2ccc(C#CC3(N)CCCCC3)cc21

The list continues:
VDR inh,SMILES
-19.8%,COc1cc(/C=C2/SC(=O)NC2=O)ccc1Oc1ccc([N+](=O)[O-])cc1[N+](=O)[O-]
-15.4%,COc1ccc(S(=O)(=O)N2CCOCC2)cc1C(=O)NCC(c1ccccc1)c1ccccc1
-3.9%,Cc1ccc2nc3c(cc(C(=O)NCC4CCCO4)c(=N)n3CCCOC(C)C)c(=O)n2c1 (stereo not drawn)
?,CN(C)CCOC(=O)C1(c2ccccc2)CCOCC1
1.6%,CCC(CC)c1nnc(NC(=O)C2=NNC(=O)CC2)s1
?,CC(=O)Nc1ccc(OS(=O)(=O)c2ccc([N+](=O)[O-])cc2)cc1
11.2µM*,N#Cc1ccc(/C=C/C(=O)c2cccnc2)cc1
-10.8%,Cc1c(O)ccc2c(CC(=O)N[C@@H](Cc3ccccc3)C(=O)O)cc(=O)oc12
6.4%,CN(C)c1ccc(CNC(=O)CN2C(=O)c3cccnc3Oc3ccc(Cl)cc32)cc1
-14.2%,CSc1ccccc1NC(=O)CN1CCN(S(=O)(=O)c2ccccc2[N+](=O)[O-])CC1

Next results.
VDR inh,SMILES
11.3%,CC(O)CNc1cc(N)c([N+](=O)[O-])cc1[N+](=O)[O-] (stereo not drawn)
?,CCOCCCn1c(SCC(=O)NC2CCCC2)nc2ccccc2c1=O
-8.6%&6.2%,COCCCNC(=O)C1CCC(CNS(=O)(=O)c2ccc(OC)cc2)CC1 (stereo not drawn)
-16.0%,Cc1ccc(C2(C)NC(=O)N(CC(=O)Nc3ccc(Cl)c(S(=O)(=O)N4CCCCC4)c3)C2=O)cc1 (stereo not drawn)
-0.5%,O=C(O)c1cnn(-c2ccccc2)c1-n1cccc1
6.9%,Cc1cc(C)c2c(CN3CCC(C)CC3)cc(=O)oc2c1
-25.7%,CCCCCn1c(=O)[nH]c2cc(C(=O)NCCCN(C)Cc3ccccc3)ccc2c1=O
3.7%,COc1cccc(-c2c(C(=O)N/N=C/c3sccc3C)nnn2-c2nonc2N)c1
